Assay outcomes (PubChem)
VDR inh = inhibitors of human vitamin D receptor | P11473 | VDR-SRC2-3 peptide fluorescence polarization, 2 h | Potency, µM, for the others: max response, negative = inhibition, usual class: inhibitors | hit rate 0.93% among 400,000; active = well fitted inhibition curve with a large enough effect; inconclusive = small, poorly fitted or top-dose-only effect, or another doubt; inactive = no such curve, though single readings can be large or run the other way; note: series mostly up to about 120 µM
Target sequence (P11473 whole entry, looked up): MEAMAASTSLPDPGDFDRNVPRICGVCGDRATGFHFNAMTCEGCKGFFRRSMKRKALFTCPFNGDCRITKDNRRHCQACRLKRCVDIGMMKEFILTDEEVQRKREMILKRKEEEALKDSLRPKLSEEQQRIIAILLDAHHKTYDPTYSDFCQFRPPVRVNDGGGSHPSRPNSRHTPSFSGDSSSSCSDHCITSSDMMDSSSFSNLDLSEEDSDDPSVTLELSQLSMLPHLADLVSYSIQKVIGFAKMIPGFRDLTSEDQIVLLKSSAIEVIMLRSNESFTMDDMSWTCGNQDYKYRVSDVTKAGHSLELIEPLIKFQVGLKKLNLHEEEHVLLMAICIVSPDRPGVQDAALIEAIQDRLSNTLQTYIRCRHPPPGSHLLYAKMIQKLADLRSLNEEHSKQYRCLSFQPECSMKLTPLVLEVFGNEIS
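After 23 nl compound addition and a short centrifugation, plates sat for 2 hours at ambient temperature; polarization of fluorescence then indicated loss of VDR binding to peptide SRC2-3.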
An asterisk follows results filed as active; ? = inconclusive; & = joins results of further samples; [ ] = another dose, or the depositor's remark. % is set by controls: 0 for no effect and ±100 for the full control effect; potency is the fitted concentration of half-maximal effect. Some of the compounds tested (hit frequency here may not be typical).

Sample of the layout (23 entries):
SMILES	VDR inh
N#CCC(=O)N/N=C/c1cn(Cc2ccccc2C#N)c2ccccc12	-2%
Cc1ccc2ccccc2c1NC(=O)c1ccco1	?
COc1cc(C2C(=O)N(C3CCCCCC3)CC(=O)N2Cc2ccccc2)ccc1OC(C)C (centres undefined)	-1%
O=C(NCC1CCCO1)C(C(=O)c1ccccc1)n1ccccc1=O (centres undefined)	-12%
COc1ccc(OC)c(C(c2nnnn2CCc2ccccc2)N2CCC(C(N)=O)CC2)c1 (centres undefined)	8%
Oc1cc(NCCc2cccnc2)cc2cccnc12	-16%
O=S(=O)(Nc1ccc(NS(=O)(=O)c2ccccc2)c(Cl)c1)c1ccccc1	11%
Cc1ccccc1OCCSc1nc2ccc(NC(=O)c3cccc(F)c3)cc2s1	4%
CCS(=O)(=O)N1CCCC(C(=O)NC2CCCCC2C)C1 (centres undefined)	13%
C=CC(=O)Nc1ccc(N(C)c2ccnc(Nc3ccc(N4CCN(C)CC4)cc3)n2)cc1	8%
CCS(=O)(=O)c1ccc2oc(SCC(=O)N3CCCCC3)nc2c1	-10%
COc1ccc(NC(=O)c2cccs2)cc1OC	15%
CC(=O)N1CCN(CC(C)(C)NS(=O)(=O)c2ccccc2)CC1	15%
O=C(NC1CCCCC1)c1ccc(CSc2nc3cccnc3n2Cc2cccc(F)c2)cc1	11%
Cc1ccc(C)c(OCC(=O)N/N=C/c2ccsc2)c1	-4%
Cc1nc2nc(SCC(=O)NC3CCC(C)CC3)nn2c(C)c1Cc1ccccc1 (centres undefined)	-3%
CCOC(=O)C1CCN(C(=S)Nc2ccc(S(N)(=O)=O)cc2)CC1	-23%
CC(C)C(=O)Nc1ccccc1N1CCN(C(=O)c2ccccc2)CC1	7%
Cc1ccccc1C(=O)Nc1c(C)nc(Nc2ccccc2)nc1Nc1ccccc1	-11%
CCOc1ccc(/C=C(\C#N)C(=O)Nc2cccnc2)cc1	-7%
CC1(CCc2ccc(O)cc2)NC(=O)NC1=O (centres undefined)	-7%
COc1cc(C(=O)NC2(C(F)(F)F)NC(=O)N(CCCc3ccccc3)C2=O)cc(OC)c1OC (centres undefined)	-12%
COC(=O)C1(CO)NC(c2cccs2)C2C(=O)N(c3ccccc3)C(=O)C21 (centres undefined)	18%

The listing, from the start:
SMILES	VDR inh
N#CCC(=O)N/N=C/c1cn(Cc2ccccc2C#N)c2ccccc12	-2%
Cc1ccc2ccccc2c1NC(=O)c1ccco1	?
COc1cc(C2C(=O)N(C3CCCCCC3)CC(=O)N2Cc2ccccc2)ccc1OC(C)C (centres undefined)	-1%
O=C(NCC1CCCO1)C(C(=O)c1ccccc1)n1ccccc1=O (centres undefined)	-12%
COc1ccc(OC)c(C(c2nnnn2CCc2ccccc2)N2CCC(C(N)=O)CC2)c1 (centres undefined)	8%
Oc1cc(NCCc2cccnc2)cc2cccnc12	-16%
O=S(=O)(Nc1ccc(NS(=O)(=O)c2ccccc2)c(Cl)c1)c1ccccc1	11%
Cc1ccccc1OCCSc1nc2ccc(NC(=O)c3cccc(F)c3)cc2s1	4%
CCS(=O)(=O)N1CCCC(C(=O)NC2CCCCC2C)C1 (centres undefined)	13%
C=CC(=O)Nc1ccc(N(C)c2ccnc(Nc3ccc(N4CCN(C)CC4)cc3)n2)cc1	8%
CCS(=O)(=O)c1ccc2oc(SCC(=O)N3CCCCC3)nc2c1	-10%
COc1ccc(NC(=O)c2cccs2)cc1OC	15%
CC(=O)N1CCN(CC(C)(C)NS(=O)(=O)c2ccccc2)CC1	15%
O=C(NC1CCCCC1)c1ccc(CSc2nc3cccnc3n2Cc2cccc(F)c2)cc1	11%
Cc1ccc(C)c(OCC(=O)N/N=C/c2ccsc2)c1	-4%
Cc1nc2nc(SCC(=O)NC3CCC(C)CC3)nn2c(C)c1Cc1ccccc1 (centres undefined)	-3%
CCOC(=O)C1CCN(C(=S)Nc2ccc(S(N)(=O)=O)cc2)CC1	-23%
CC(C)C(=O)Nc1ccccc1N1CCN(C(=O)c2ccccc2)CC1	7%
Cc1ccccc1C(=O)Nc1c(C)nc(Nc2ccccc2)nc1Nc1ccccc1	-11%
CCOc1ccc(/C=C(\C#N)C(=O)Nc2cccnc2)cc1	-7%
CC1(CCc2ccc(O)cc2)NC(=O)NC1=O (centres undefined)	-7%
COc1cc(C(=O)NC2(C(F)(F)F)NC(=O)N(CCCc3ccccc3)C2=O)cc(OC)c1OC (centres undefined)	-12%
COC(=O)C1(CO)NC(c2cccs2)C2C(=O)N(c3ccccc3)C(=O)C21 (centres undefined)	18%
COc1cccc(NC(=O)N2CCC(n3c(C)nc4cccnc43)CC2)c1	-1%
O=C(O)C[CH2][Ge](=[O])[O][Ge](=[O])[CH2]CC(=O)O	18%
Cc1ccc(C)c(OCCCNC2CCCC2)c1C	5%
COc1ccc(S(=O)(=O)NC2CCCC2)cc1Cl	-1%
CCCCN(CC)CCCNC(=O)Cn1ncc2c3ccccc3n(C)c2c1=O	9%
Cc1ccc(CN2CCNC(=O)C2CC(=O)N(C)C(C2CC2)C2CC2)o1 (centres undefined)	-3%
O=[N+]([O-])c1cnccc1Nc1cccc(F)c1	5%
COc1ccc(-c2cccc(C3CC=CC4C3C(=O)N(Cc3ccccc3)C4c3ccc(OC)c(Cl)c3)c2)cc1 (centres undefined)	1%
CC1=C(c2ccc(Cl)cc2)S(=O)(=O)N=C1N1CCN(c2cccc(C(F)(F)F)c2)CC1	15%
Cc1ccccc1NS(=O)(=O)c1ccc(C(=O)N2CCCCCCC2)cc1	-18%
O=C(CSc1nc2ccccc2c(=O)n1CCCN1CCOCC1)c1c[nH]c2ccccc12	-2%
Cc1ccc(NC(=O)c2nc(S(=O)(=O)Cc3cccc(C)c3)ncc2Cl)cc1	?
Cc1ncc([N+](=O)[O-])n1CCOC(=O)c1ccc(Cl)cc1Cl	37%[activator]
CC(C)Cc1cc(C(=O)Nc2ccc3c(c2)OCO3)no1	-2%
COc1cc(C(C)=O)ccc1Oc1ncccn1	-19%
Cc1ccc(CNC(=O)CCNS(=O)(=O)c2ccc(Br)s2)cc1	17%
O=C(C1CCCN(S(=O)(=O)c2cc(Cl)ccc2Cl)C1)N1CCOCC1 (centres undefined)	-3%
COc1cc2c(cc1OC)C(c1cccs1)N(C(=S)NC(C)C)CC2 (centres undefined)	-21%
O=C1CN(C(=O)NCC(=O)N[C@H](Cc2ccccc2)C(=O)O)c2ccccc2N1	-2%
Cn1c(=O)c2cc(C(=O)NCCCN3CCN(c4ccccc4F)CC3)sc2c2ccccc21	-9%
CCOc1ccccc1NC(=O)CSc1ccc2nnc(CCNS(=O)(=O)c3ccccc3)n2n1	11%
O=C(NCC(c1cccs1)N1CCOCC1)c1ccc([N+](=O)[O-])cc1 (centres undefined)	-7%
Cc1ccc(F)c(Cn2cnc3c(cnn3C(C)(C)C)c2=O)c1Cl	-2%
COC(=O)c1ccc2c(c1)S(=O)(=O)NC(=NCCCN1CCOCC1)S2	0%
N#CC1=C(N)N(c2ccccc2)C2=C(C(=O)CCC2)C1c1cccs1 (centres undefined)	13%
COc1ccccc1/C=C/C=N/n1c(C2CCCCC2)n[nH]c1=S	-10%
Cc1ncc(CO)c2cc(S(=O)(=O)c3ccc(F)cc3)c(=O)oc12	-7%
Cc1cc(Br)ccc1NC(=O)c1cc2c(=O)n(C)c3cc(Cl)ccc3c2s1	13%
CCC(CCC(C)C1CCC2C3CCC4CC(O)CC[C@@]4(C)C3CC[C@@]12C)C(C)C (some centres undefined)	-3%
COC(=O)c1ccc(C(=O)Nc2ccc(N)cc2N)cc1	18%
Cc1ccc(NC(=O)CCC(=O)n2nc(C)cc2C)c(C)c1	6%
CC(C)(C)CC(=O)NC1CC(=O)N(c2ccc3c(c2)OCCO3)C1 (centres undefined)	2%
Cc1cc(C)c(OCC(=O)Nc2ccccc2N2CCCCC2)c(C)c1	-18%
O=C(NC1CCS(=O)(=O)C1)Oc1ccccc1 (centres undefined)	-16%
Clc1cc(Br)ccc1OCCOCCOc1cccc2cccnc12	-9%
COc1cc(C(=O)Nc2ccc(N3CCOCC3)cc2)ccc1OCc1c(C)noc1C	6%
COc1ccc(C(=O)N2CCC(C(=O)NC3CC3)CC2)cc1	4%
(cont.)
SMILES	VDR inh
O=C(OC1Cn2c(=O)ccc(=O)n2C1)c1ccc([N+](=O)[O-])cc1	-11%
Cc1ccc(NC(=O)C(=O)NCC(c2cccnc2)N2CCOCC2)cc1Cl (centres undefined)	-1%
Clc1cc(Br)ccc1OCCCNCc1ccccc1	-25%
Cn1c(C(=O)N2CCCC(Nc3ccc(F)cc3)C2)cc2ccccc21 (centres undefined)	25%
CCn1cc(C(=O)N2CC(C)CC(C)C2)c(=O)c2cc(S(=O)(=O)N3CCCC3)ccc21 (centres undefined)	5%
COc1ccc(NC(=O)c2c(N)c(C(=O)c3ccc(OC)cc3)n3ccccc23)cc1	7%
COc1ccc(CC(=O)N(c2ccccc2)c2nc(C)cs2)cc1	-22%
O=C(Cn1nnc(-c2cccs2)n1)N1CCOCC1	0%
CCNc1ccc(C(=O)OCC(=O)Nc2cc(C)on2)cc1[N+](=O)[O-]	-6%
COc1ccccc1NC(=O)C1=C(C)Nc2nc(-c3ccco3)nn2C1c1ccccc1 (centres undefined)	5%
COc1ccc(N2CC(C(=O)N/N=C/c3ccc([N+](=O)[O-])cc3)CC2=O)cc1 (centres undefined)	-22%
N#C/C(=C/c1ccc(OCc2ccccc2)cc1)C(=O)NC1CCCCC1	0%
CC(=O)N1CCN(C(=O)c2cc(S(=O)(=O)N3CCN(c4ccccc4)CC3)ccc2Cl)CC1	-13%
O=C(Nc1nnc(C2CC2)s1)C1CCCO1 (centres undefined)	9%
COc1ccc(-c2nc3cc([N+](=O)[O-])ccc3o2)cc1	?
COc1ccccc1C1NC(=O)CS1 (centres undefined)	3%
CC(C)(C)SCCNS(=O)(=O)c1ccc(Cl)cc1	?
CC(C)c1ccc(NS(=O)(=O)c2ccc3c(c2)NC(=O)CO3)cc1	-9%
COc1ccc(/C=C2\SC(=S)N(CC(=O)N(C)C3CCS(=O)(=O)C3)C2=O)cc1 (centres undefined)	-12%
CCN(CC)c1ccc(/C=N/N2CCN(Cc3ccccc3)CC2)c(O)c1	?
CCOC(=O)N1CCC(N2CC34C=CC(O3)C(C(=O)Nc3ccc(F)cc3)C4C2=O)CC1 (centres undefined)	-14%
CC12CCC(C(=O)NCCCN3CCOCC3)(OC1=O)C2(C)C (centres undefined)	-4%
CN(C)S(=O)(=O)c1ccc(C(=O)OCCn2cnc3c2c(=O)n(C)c(=O)n3C)cc1	-9%
CCOc1ccc(-n2c(Cc3ccccc3)nnc2SCc2nc(-c3cccs3)no2)cc1	-6%
Cc1ccc2cc(CN(CCN(C)C)C(=S)Nc3ccccc3)c(=O)[nH]c2c1C	-11%
C=C(C(=O)C(C)(C)O)C(O)c1ccc([N+](=O)[O-])cc1 (centres undefined)	0%
COc1ccccc1N1CCN(S(=O)(=O)c2ccccc2)CC1	8%
N#C/C(=C/c1cn[nH]c1-c1cccc(Br)c1)C(=O)O	-14%
O=C(CCNC(=O)Cn1ccc2ccccc2c1=O)NCCc1ccccc1Cl	-16%
O=C(Cn1c(=O)[nH]c2ccccc2c1=O)N1CCN(c2cccc(Cl)c2)CC1	-9%
O=C(CCN1C(=O)C2C3C=CC(C3)C2C1=O)Nc1ccccc1F (centres undefined)	-14%
Cc1cc(Nc2nc(Cl)c(Cl)cc2Cl)n(-c2ccccc2)n1	11%
COc1ccc(OC)c2sc(N3CCN(C(=O)C4CC4)CC3)nc12	1%
COc1ccc(-c2ccc3c(c2)c(-c2cccs2)c(-c2cc(OC)cc(OC)c2)n3C)cc1	-8%
COC(=O)C1CCN(C(=O)COC(=O)c2cccc(NS(=O)(=O)c3ccccc3)c2)CC1	-1%
O=C(O)CCC(=O)OCc1c(-c2ccccc2)ncc2ccccc12	?
CN(Cc1ccccc1)C(=O)c1ccc2c(c1)S(=O)(=O)N=C1CCCCCN12	-10%
Cc1cc(N)n(-c2ccc(S(=O)(=O)N3CCCC3)cc2[N+](=O)[O-])n1	-10%
CCN(CC)S(=O)(=O)c1ccc2c(c1)c(=O)c(C(=O)NCCc1ccccc1)cn2C	-5%&-1%
CCCNC(=O)Cn1c(=O)/c(=C/c2ccc(-c3ccc([N+](=O)[O-])cc3)o2)s/c1=C\C(=O)C(C)(C)C	17%
C[C@@H]1CC[C@]2(O[C@@H](CCO)C[C@H](O)[C@H]2O)O1	12%
CCOc1ccccc1NC(=O)Nc1cc(S(=O)(=O)N(C)C)ccc1C	7%
c1ccc(-c2nnc(-c3ccccc3)nn2)cc1	18%
CN(C)N1C(N)=C(C#N)C(c2ccc(Br)cc2)C2=C1CCCC2=O (centres undefined)	0%
O=C(CSc1nnc(Cn2nnc3ccccc32)o1)N(Cc1ccc(F)cc1)c1ccccc1	7%
COC(=O)N1CCC[C@@]2(CCN(c3ccncc3)C2)C1	9%
Cc1nn(-c2ccc(Cl)c(Cl)c2)c(=O)c2ccccc12	4%
O=c1cc(-c2ccccc2Cl)oc2cc(O)cc(O)c12	-1%
CCN(CC)S(=O)(=O)c1ccc(NS(=O)(=O)c2ccc(F)cc2)cc1	53%[activator]
O=[N+]([O-])c1cccc(S(=O)(=O)Nc2cccc(-c3ccc(N4CCOCC4)nn3)c2)c1	-17%
Cc1ccc(NCC(=O)N/N=C/c2cccc(Oc3ccccc3)c2)cc1	4%
Nc1nncn1C(=O)CCCOc1ccc(Cl)cc1Cl	1%
CCOc1ccc(CN2CCc3nc(N4CCN(c5ccccc5OC)CC4)ncc3C2)cc1OC	6%
CN(C)CCOc1ccccc1-c1ccccc1	-3%
CCc1cccc(NC(=O)CN2c3ccccc3S(=O)(=O)c3ccccc32)c1	-5%
CCc1nnc(NC(=O)C2CCCN(S(=O)(=O)c3ccc(OC)cc3)C2)s1 (centres undefined)	4%
O=c1cc(COc2ccccc2[N+](=O)[O-])nc2sccn12	11%
CCOC(=O)c1c(CSCc2ccccc2)oc2ccc(O)c(CN(C)C)c12	-3%
COc1cc(OC)cc(OCC(O)Cn2ccnc2)c1 (centres undefined)	7%
